Compound activity deposited in PubChem BioAssay by SRMLSC.
H5N1 CPE: MDCK cell protection from H5N1 avian flu | AID 740, 2007 | 0.07% of 96,000 active | inhibition, % at 50 µM | cytopathic effect, luminescence, 72 h; hits give high values; no value below 0 was filed and about half of the inactive calls have no number; reference of the scale not given here; in the data active = inhibition above about 25%
* hit, by the source's call; i = inactive.

SMILES	H5N1 CPE
O=C(NC1CCCC1)C(Cc1ccccc1)n1cccc1 (stereo not drawn)	2.7
CCC(NC(=O)c1ccccc1NC(=O)c1ccco1)C(=O)O (stereo not drawn)	i
COC(=O)c1ccc2c(=O)n(Cc3ccco3)c(SCC(=O)Nc3ccc(C)c(Cl)c3)nc2c1	i
CCOC(=O)CON1C(=O)c2ccccc2C1=O	i
Cc1cccc(S(=O)(=O)Nc2nc3ccccc3nc2NCc2ccco2)c1	0.2
COc1cccc(C(=O)NNC2=CC(=O)CC(C)(C)C2)c1	1.0
O=C(O)c1ccc(N2CCCC2=O)cc1	0.6
Cn1c(=O)oc2cc(S(=O)(=O)Nc3cccc4c3CCCC4)ccc21	2.0
Cc1nc2ccccc2c(=O)n1NC(=O)c1c(O)c2c(n(CC(C)C)c1=O)CCCC2	i
CC(OC(=O)CCc1nc2ccccc2c(=O)[nH]1)C(=O)NCc1ccc2c(c1)OCO2 (stereo not drawn)	i
Cc1oncc1C(=O)NC(C)C	i
Cc1cc(NC(=O)c2ccc(S(=O)(=O)N3CCCC3)cc2)nc2c1c(=O)oc1ccccc12	i
Cc1cccc(CSC2=NCCN2C(=O)c2ccco2)c1	i
CCc1cc2cc(C(=O)N3CCN(Cc4ccccc4)CC3)sc2s1	3.6
CN1CCN(NC(=O)CN2C(=O)/C(=C/c3ccccc3Cl)SC2=S)CC1	i
CC1(C)Cc2nc3sc4c(OCc5ccccc5)ncnc4c3cc2CO1	1.2
CC1=C(C(=O)OC2CCCCC2)C(c2ccc(C)o2)C2=C(CCCC2=O)N1 (stereo not drawn)	1.9
CC(=O)c1c(C(C)=O)c(C)n(Cc2ccc(Cl)cc2)c1C	i
O=C(CCc1ccccc1)Nc1ncn[nH]1	1.2
O=C(NCc1ccccn1)c1ccc(NC(=O)c2ccco2)cc1	i
CCN(CC)CCNCc1ccc(-c2ccc(Cl)cc2)o1	i
COc1ccc(S(=O)(=O)N2CCN(Cc3ccccc3)CC2)cc1	2.1
Cc1ccc(C(=O)NCc2occc2C(=O)O)o1	i
Cc1cccnc1Nc1nc(-c2ccc(O)cc2)cs1	i
COc1ccc(CSC(=N)N)cc1[N+](=O)[O-]	i

(listing goes on)
SMILES	H5N1 CPE
CCOc1ccc(NC(N)=O)cc1	i
Cc1ccccc1-c1nc2cc(Cl)ccc2o1	i
Cc1cccc(OCC(=O)O/N=C(\N)c2ccccn2)c1	0.4
CC(C)C1(C)N=C(c2nc3ccccc3cc2C(=O)O)NC1=O (stereo not drawn)	i
COc1ccc(N(Cc2ccco2)C(=O)c2ccccc2F)cc1OC	10
CCOC(=O)C1=C(C)NC2=C(C(=O)CCC2)C1c1cccnc1 (stereo not drawn)	0.5
O=C(c1ccc(S(=O)(=O)N2CCOCC2)cc1)N1CCN(c2ccc(F)cc2)CC1	1.9
COc1ccccc1NC(=O)CSc1nnc(Cc2ccccc2)o1	i
CCc1cccc(C)c1NC(=O)CCCC(=O)O	0.7
Cc1[nH]n(-c2ccc(Cl)cc2)c(=O)c1C=Nc1ccc(S(=O)(=O)N2CCOCC2)cc1	i
CCC(NS(=O)(=O)c1ccc(OC)cc1)C(=O)NCCC1=CCCCC1 (stereo not drawn)	0.4
[O-]C1=N/[N+](=C/c2ccc(Cl)cc2)CC1	0.5
Cc1nc2ccc(S(=O)(=O)NC(C(=O)N3CCn4c3nc3ccccc34)C(C)C)cc2s1 (stereo not drawn)	1.0
Cc1[nH]n2c(=O)c3c(nc2c1-c1ccccc1)CCC3	1.8
O=C(CSc1nnnn1C1CCCC1)Nc1ccc(F)cc1	i
COc1cc(OC)c(C#N)c(S(=O)(=O)Cc2ccccc2)c1	0.8
O=c1oc2ccccc2c(O)c1/C=C1\C=Nc2ccccc21	i
CC1C2CC(C(S(=O)(=O)N3CCOCC3)C2=O)C1(C)C (stereo not drawn)	i
Cc1cc(O)c(C(C[N+](=O)[O-])c2ccc(Cl)cc2Cl)c(=O)o1 (stereo not drawn)	i
CNC(=O)C(C)NS(=O)(=O)c1ccc(F)cc1 (stereo not drawn)	0.2
CCOc1ccc(NC(=O)CCS(=O)(=O)c2ccc3c(c2)CCCN3C(=O)CC)cc1	0.1
Cc1ccc(S(=O)(=O)NCCN=C(CN2CCOCC2)NS(=O)(=O)c2ccc(C)cc2)cc1	i
O=C(Nc1c(-c2ccccc2)nc2sccn12)c1ccccc1	48*
COc1ccc(NC(C)=O)cc1NC(C)C(=O)Nc1ccc(F)cc1 (stereo not drawn)	i
COCCn1c(Cc2ccccc2)nnc1SCC(=O)NC(C)(C)C	0.9

4 entries from above in a different format.
COc1ccc(N(Cc2ccco2)C(=O)c2ccccc2F)cc1OC
  H5N1 CPE: 10
CCOC(=O)C1=C(C)NC2=C(C(=O)CCC2)C1c1cccnc1 (stereo not drawn)
  H5N1 CPE: 0.5
O=C(c1ccc(S(=O)(=O)N2CCOCC2)cc1)N1CCN(c2ccc(F)cc2)CC1
  H5N1 CPE: 1.9
COc1ccccc1NC(=O)CSc1nnc(Cc2ccccc2)o1
  H5N1 CPE: i

Next section:
SMILES	H5N1 CPE
Cc1cc(NC(=O)COc2cccc(C)c2C)no1	0.9
Cc1sc(NC(=S)NC(=O)C(C)(C)C)c(C(N)=O)c1C	i
O=C(c1csc(Nc2ccccc2Cl)n1)N1CCCC1	0.4
COc1ccccc1NC(=O)C1=C(C)Nc2ncnn2C1c1ccccc1C (stereo not drawn)	i
CN1CCN(c2ccc([N+](=O)[O-])cc2C(=O)c2ccc(Br)cc2)CC1	i
CCOC(=O)c1ccccc1NC(=O)Cn1cnc2c(cnn2-c2ccccc2)c1=O	0.7
CCCCCCNCc1cccc(Br)c1	i
CCOc1cc(CNc2ccc(O)cc2)ccc1OCc1ccc(Cl)cc1Cl	i
Cc1ccc(NC(=O)N(CCCN2CCOCC2)Cc2cc3cc4c(cc3[nH]c2=O)OCO4)cc1	0.7
CCCC(CCC(=O)OC)(C(=O)OCC)c1csc(N)n1 (stereo not drawn)	i
COc1ccc(CCNC(=O)C2CC(c3cccc([N+](=O)[O-])c3)=NO2)cc1 (stereo not drawn)	i
Cc1ccc(-n2c(SCC(=O)Nc3cc(C)on3)nc3c(c2=O)SC(C)C3)cc1 (stereo not drawn)	i
COc1ccc(-c2nnc(NC(=O)c3ccc(S(=O)(=O)N4CCc5ccccc5C4)cc3)o2)cc1	1.9
Nc1nonc1C(=O)NCCNCc1cc(Br)ccc1OCc1ccccc1F	i
CCOC(=O)CSc1nnc(CNc2ccc(F)cc2)o1	i
O=C(NC1CC2CCCC(C1)N2C(=O)Nc1ccc(Cl)c(C(F)(F)F)c1)C1CC1 (stereo not drawn)	0.6
Cc1c(Cl)c([N+](=O)[O-])nn1CC(=O)NC(C)C1CC2CCC1C2 (stereo not drawn)	0.7
COc1cc(Cn2ccnc2)c(OC)cc1Cn1ccnc1	2.0
Cc1c(Cl)cccc1NC(=O)c1ccc(-n2ccnc2)nc1	i
COc1ccc(CNC(=O)C2CCN(S(=O)(=O)c3cc(OC)ccc3OC)CC2)cc1	0.2
CCc1nnc(NC(=O)CSc2nc3c(c(=O)n2-c2ccccc2OC)SCC3)s1	1.4
Cc1ccc(C(=O)NCC(=O)O)cc1S(=O)(=O)N1CCCCC1	i
Cc1nn(C(C)(C)C)c(OC(=O)c2ccc3c(c2)OCO3)c1S(=O)(=O)c1ccccc1	i
CCC(C)n1c(C)nc2c(c1=O)c1nc3ccccc3nc1n2CCC1=CCCCC1 (stereo not drawn)	1.1
COc1ccc(C(O)P(=O)(OC2CCCCC2)c2ccc(N(C)C)cc2)cc1OC (stereo not drawn)	i

The list goes on:
SMILES	H5N1 CPE
O=C(Nc1cccc2ccccc12)c1ccc(OC(=S)N2CCOCC2)cc1	3.4
O=C(Nc1ccc(N2CCOCC2)c(Cl)c1)c1ncn[nH]1	i
C=CCOC(=O)C(C#N)c1nc2ccccc2nc1N1CCN(c2ccccc2OC)CC1 (stereo not drawn)	i
CC(C)CCNC(=O)C(C)N(C(=O)Cn1nnc(-c2ccc(F)cc2)n1)C1CCCC1 (stereo not drawn)	i
COC(=O)CN1C(=O)N(c2ccccc2)C(N(O)C(=O)Nc2ccccc2)C1(C)C (stereo not drawn)	0.4
Cc1nn(-c2ccccc2)c(C)c1C(=O)OCC(=O)NC12CC3CC(CC(C3)C1)C2	5.4
CN1CCN(C(=O)CCNC(=O)Cn2ccc3ccccc3c2=O)CC1	0.4
O=C(c1cc(-c2ccco2)on1)N1CCN(c2ccccc2)CC1	i
CCCCn1c(C)c(C(=O)O)c2cc(OC)ccc21	i
O=C(NC(=S)Nc1cc([N+](=O)[O-])ccc1Cl)c1ccccc1	3.3
Cc1oc(C(C)(C)C)c(CN2CCCC2)c1C(=O)O	i
Cc1sc(NC(=O)c2cccs2)c(C(N)=O)c1C	i
O=C1CCCCCN1Cc1ccccc1	i
CCOc1ccccc1NC(=O)CSc1nnnn1-c1ccc(C(=O)OC)cc1	i
CCCCCCNS(=O)(=O)c1nc2nc(C)cc(C)n2n1	0.7
COc1ccc(Br)cc1C(=O)Nc1ccc(N2CCN(S(C)(=O)=O)CC2)cc1	0.8
C/C(NC(=O)c1cccs1)=C1\C(=O)C[C@@H]2[C@H]1C2(C)C	i
Cc1nc2c3ccccc3n(CC#N)c(=O)n2n1	1.0
CCc1ccc(N(C(=O)C(F)(F)F)C(C(=O)NC2CCCCC2)c2ccncc2)cc1 (stereo not drawn)	0.8
N#CC1=C(N)OC2=C(CN(Cc3ccccc3)C/C2=C\c2cccnc2)C1c1cccnc1 (stereo not drawn)	i
CCOC(=O)c1cnc2ccc(Cl)cc2c1N1CCN(C)CC1	1.4
Cc1ccc(-n2nnnc2SCC(=O)N2CC(=O)Nc3ccccc32)cc1	1.4
Cn1c(COc2ccc(Cl)cc2)nnc1SCc1ncc(-c2ccccc2)o1	0.2
CCCCOc1ccc(C(C)(O)CCN2CCOCC2)cc1 (stereo not drawn)	0.8
COc1ccc(Cn2ccnc2)cc1Br	i

(list continues)
SMILES	H5N1 CPE
COc1cc(C(=O)NC2CC3CCCC(C2)N3C2CC2)cc(OC)c1OC (stereo not drawn)	1.2
COc1ccc(CNc2ncnc3cc(OC)c(OC)cc23)cc1	i
O=C1CC(=O)N(Cc2cccs2)C(=O)N1	i
CN(C)S(=O)(=O)Nc1ccc2c(c1)OCO2	i
O=C1Nc2ccc(Br)cc2/C1=N/N=C/C1=C(N2CCOCC2)C(=C\c2ccccc2)/CC1	i
CC(Sc1ccc(Cl)cc1)C(=O)NCc1cccnc1 (stereo not drawn)	1.0
COC(=O)C1CSC(C(=O)OC)N1C(=O)Nc1ccccc1 (stereo not drawn)	i
Cc1cccc2sc(NC(=O)CCNS(=O)(=O)c3cccs3)nc12	2.6
O=C(CC12CC3CC(CC(C3)C1)C2)NCc1ccncc1	0.6
C=CCSc1nc(-c2ccc3c(c2)OCO3)cc(C(F)(F)F)c1C#N	i
CCOc1cc(/C=N\NC(=O)c2ccc(C)nc2)cc([N+](=O)[O-])c1O	0.4
CC1CCc2nn(CC(=O)N3CCN(C(=O)c4ccco4)CC3)cc2C1 (stereo not drawn)	i
O=C(c1c(O)c2ccccc2oc1=O)C1CCC1	i
O=C(CSc1nnnn1-c1ccccc1)CC(=O)Nc1ccc(Cl)cc1	i
Cn1c(=O)c2c(nc(-n3ccnc3)n2Cc2ccccc2)n(C)c1=O	0.6
COc1ccccc1OCCCn1cc(C#N)c2ccccc21	2.3
FC(F)(F)c1cc(-c2cccs2)n[nH]1	1.4
Cc1nnc(SCC(=O)NC(C)c2ccccc2)[nH]c1=O (stereo not drawn)	i
CCCOc1ccc2oc(=O)c3c(c2c1)CCCN3C(=O)CN(C)Cc1ccccc1	3.0
COc1ccc(CCNC(=O)Cc2nn(C)c(=O)c3ccccc23)cc1OC	i
COc1ccccc1N(CC(=O)NCc1ccccn1)S(C)(=O)=O	i
COc1ccc(-c2[nH]ncc2-c2ccc3c(c2)OCCO3)c(O)c1	0.8
CCCc1cc(=O)[nH]c(SCc2cccc(C)c2)n1	0.6
O=C(CSc1nnnn1Cc1ccccc1)N1CCN(c2ccccc2)CC1	1.0
COc1ccc(S(=O)(=O)n2oc(=O)cc2-c2ccccc2)cc1	0.8

Five compounds picked at random from those above, as already listed:
SMILES	H5N1 CPE
CCOc1cc(CNc2ccc(O)cc2)ccc1OCc1ccc(Cl)cc1Cl	i
Cc1cccc(CSC2=NCCN2C(=O)c2ccco2)c1	i
O=C(Nc1cccc2ccccc12)c1ccc(OC(=S)N2CCOCC2)cc1	3.4
CC(Sc1ccc(Cl)cc1)C(=O)NCc1cccnc1 (stereo not drawn)	1.0
COc1ccc(CCNC(=O)Cc2nn(C)c(=O)c3ccccc23)cc1OC	i

In the list so far, 4 contain a tert-butyl group:
SMILES	H5N1 CPE
COCCn1c(Cc2ccccc2)nnc1SCC(=O)NC(C)(C)C	0.9
Cc1sc(NC(=S)NC(=O)C(C)(C)C)c(C(N)=O)c1C	i
Cc1nn(C(C)(C)C)c(OC(=O)c2ccc3c(c2)OCO3)c1S(=O)(=O)c1ccccc1	i
Cc1oc(C(C)(C)C)c(CN2CCCC2)c1C(=O)O	i

The list goes on:
SMILES	H5N1 CPE
CCOC(=O)CNC(=O)Cn1cnc2sc(C)c(S(=O)(=O)N3CCC(C)CC3)c2c1=O	1.2
O=C1OC2(CCCCC2)OC(=O)C1=CNc1nc2ccccc2s1	0.1
Cc1cccc(-c2nc3ccccc3c3nncn23)c1	i
Cc1ccc(O)c(-c2cc3ccccc3[nH]2)c1	0.1
CCCCc1c(O)c2ccccc2[nH]c1=O	0.1
CC(=O)Nc1ccc(NS(=O)(=O)c2cc(C)sc2C)cc1	1.5
Cc1ccc(NC(=O)c2noc3c2CCc2ccccc2-3)cc1	i
Cc1cc(C)cc(NC(=O)Cn2ncn3c(cc4ccccc43)c2=O)c1	i
COc1ccc(Nc2cc(C)nc3ncnn23)c(OC)c1	0.1
Nc1cc(=O)nc(SCC(=O)Nc2cccc3ccccc23)n1CCc1ccccc1	i
CC1(C)N([O-])C2=C(c3ccccc3C2=O)[N+](=O)C1(C)C	i
CCOC(=O)Cc1csc(NC(=O)NC2(C(F)(F)F)Oc3ccccc3O2)n1	i
CN1CC(=O)NC1=NC(=O)C12CC3CC(CC(C3)C1)C2	1.6

Only part of the results is shown; the hit share may differ from the screen's.
